RVFV N-RNA FP: RVFV nucleocapsid-RNA interaction inhibition. RVFV N-RNA binding, fluorescence polarization; stronger effect = lower value. % bound, % (test concentration not listed). hit rate 0.1% among 20,000. P21700;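 active = between 0 and 58% in either replicate with normal brightness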;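 note: 100 nL library stock added to about 12 µL; 100% = protein and probe without compound and 0% = probe alone; numbers are from one replicate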
Target sequence (P21700 whole entry, looked up): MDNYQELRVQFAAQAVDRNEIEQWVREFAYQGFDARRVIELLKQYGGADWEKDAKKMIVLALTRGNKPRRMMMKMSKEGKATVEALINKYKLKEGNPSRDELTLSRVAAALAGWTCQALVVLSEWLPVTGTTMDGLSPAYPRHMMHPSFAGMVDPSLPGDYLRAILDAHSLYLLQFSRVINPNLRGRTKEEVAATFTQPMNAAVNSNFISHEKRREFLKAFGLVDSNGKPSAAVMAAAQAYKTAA
An asterisk follows results filed as active; & = joins results of further samples. Some of the compounds tested; count on the stated rates, not on these rows.

For N#C/C(=C\c1cn(-c2ccccc2)nc1-c1cccs1)c1ccc(C#N)cc1 the results were RVFV N-RNA FP 84.9.
Screening CCOC(=O)c1cnc2c(C#N)cnn2c1N returned RVFV N-RNA FP 90.1.
For Cc1ccc(C)c(NC(=O)CCN2CCc3ccccc3C2)c1 the results were RVFV N-RNA FP 95.9.
Screening N#CC(=C(\N)Sc1ccccc1N)/C(C#N)=C(/N)Sc1ccccc1N returned RVFV N-RNA FP 93.7.
NC(=O)c1ccccc1 was read as RVFV N-RNA FP 100.0.
`O=C(CCn1c(=O)oc2cc(Br)ccc21)NCc1ccco1` gave RVFV N-RNA FP 97.9.
Screening COc1ccc(C)cc1S(=O)(=O)NC1CC1 returned RVFV N-RNA FP 92.3.
`c1nc(NC2CCCCC2)c2[nH]cnc2n1` gave RVFV N-RNA FP 97.0.
`OC(Cc1ccccc1)c1ccccc1` (centres undefined) gave RVFV N-RNA FP 101.4.
O=C(Nc1ccccc1)N1CCCN(Cc2ccc(F)cc2)CC1 was read as RVFV N-RNA FP 110.1.
CCOc1nccc(C(F)(F)F)c1C(=O)N(CC)c1c(C)cccc1C was read as RVFV N-RNA FP 99.4.
`C/C(=N\NC1=NCCN1)c1ccccc1` gave RVFV N-RNA FP 87.8.
`CCN(c1ccc(OC)cc1)c1ncnc2nc[nH]c12` gave RVFV N-RNA FP 94.4.
Screening NS(=O)(=O)c1ccc(NNC(=O)c2cccs2)cc1 returned RVFV N-RNA FP 96.5.
CN(c1ccc(CN2C(=O)c3ccccc3C2=O)cc1)S(C)(=O)=O was read as RVFV N-RNA FP 88.8.
Screening CN(C)S(=O)(=O)c1ccc(N2CCOCC2)nc1 returned RVFV N-RNA FP 92.1.
`CN(C)CCCN1c2ccccc2Sc2ccc(Cl)cc21` gave RVFV N-RNA FP 100.4&103.0&97.0.
Screening Cc1ccc(-c2cc(C(=O)Nc3ccc(Br)cc3F)c3ccccc3n2)o1 returned RVFV N-RNA FP 92.2.
For CCN(C(=O)CSc1ncc(C#N)c(N)n1)c1ccccc1 the results were RVFV N-RNA FP 96.5.
For CCOCC(=O)Nc1ccc(C#N)cc1 the results were RVFV N-RNA FP 94.1.
Screening CN(C)CCC=C1c2ccccc2C=Cc2ccccc21 returned RVFV N-RNA FP 95.8.
O=C1NC(C2CCCCC2)Nc2ccccc21 (centres undefined) was read as RVFV N-RNA FP 101.0.
Screening N#Cc1cc2c(N)c(C(=O)c3ccccc3)sc2nc1N returned RVFV N-RNA FP 92.8.
CC(C)NC(=S)NCc1cccs1 was read as RVFV N-RNA FP 94.6.
Screening CCC1SC(CC)C(=O)N(CC(=O)NCc2ccc(F)cc2)C1=O (centres undefined) returned RVFV N-RNA FP 96.1.
For CSc1ccc(NC(=O)N2CCC(N3CCCCC3)CC2)cc1 the results were RVFV N-RNA FP 97.6.
COc1ccc(NC(=S)NC(=O)c2oc3ccccc3c2C)c(OC)c1 was read as RVFV N-RNA FP 94.2.
Screening Cc1nc(COc2ccc(/C(N)=N/OC(=O)N(C)C)cc2)cs1 returned RVFV N-RNA FP 91.4.
For CCCCC(O)(c1ccc(N(C)C)cc1)c1ccc(N(C)C)cc1 the results were RVFV N-RNA FP 89.8.
`O=S(=O)(c1ccccc1)N1CCN=C1SCc1ccccc1` gave RVFV N-RNA FP 101.5.

The closing 6 entries of the section before come first, to join the parts:
Screening CCC1SC(CC)C(=O)N(CC(=O)NCc2ccc(F)cc2)C1=O (centres undefined) returned RVFV N-RNA FP 96.1.
For CSc1ccc(NC(=O)N2CCC(N3CCCCC3)CC2)cc1 the results were RVFV N-RNA FP 97.6.
COc1ccc(NC(=S)NC(=O)c2oc3ccccc3c2C)c(OC)c1 was read as RVFV N-RNA FP 94.2.
Screening Cc1nc(COc2ccc(/C(N)=N/OC(=O)N(C)C)cc2)cs1 returned RVFV N-RNA FP 91.4.
For CCCCC(O)(c1ccc(N(C)C)cc1)c1ccc(N(C)C)cc1 the results were RVFV N-RNA FP 89.8.
`O=S(=O)(c1ccccc1)N1CCN=C1SCc1ccccc1` gave RVFV N-RNA FP 101.5.
For CN(C)/N=C/c1ccc(OC(=O)c2ccccn2)cc1 the results were RVFV N-RNA FP 100.6.
For COc1ccccc1OCC(=O)N1CCN(C(c2ccccc2)c2ccccc2)CC1 the results were RVFV N-RNA FP 86.2.
`O=c1[nH]nc(-c2ccc(F)cc2)cc1-c1ccccc1` gave RVFV N-RNA FP 91.8.
Screening COc1ccc(NC(=O)OCc2ccccc2)cc1OC returned RVFV N-RNA FP 100.0.
For CN(C(=O)c1cccc(F)c1)C(C)(C)C the results were RVFV N-RNA FP 92.5.
Cc1cc(-c2nc(C(=O)/C=C/N(C)C)cs2)no1 was read as RVFV N-RNA FP 95.3.
Screening O=C(O)CCCc1ccccc1 returned RVFV N-RNA FP 99.7&78.8.
`O=C(Nc1ccc(Br)cc1)C1CC1` gave RVFV N-RNA FP 86.9.
Screening c1ccc(-c2cc3cnsc3o2)cc1 returned RVFV N-RNA FP 110.0.
Screening COc1cc(/C=C/C(=O)O)cc(S(=O)(=O)NCCO)c1OC returned RVFV N-RNA FP 97.5.
For Cc1cccc(S(=O)(=O)C(C#N)c2nc3ccccc3nc2N2CCCC2)c1 (centres undefined) the results were RVFV N-RNA FP 97.5.
Screening CCN1CCN(C(=S)c2ccc(OCC(N)=O)c(OC)c2)CC1 returned RVFV N-RNA FP 87.0.
`COc1ccccc1/C=C(\C#N)C(N)=C(C#N)C#N` gave RVFV N-RNA FP 99.2.
Screening Cc1cc(C(=O)N2CCCCCC2)cs1 returned RVFV N-RNA FP 96.9.
Screening CCCC(=O)N1CCN(c2ccc(NC(=O)c3cccc(C)c3OC)cc2Cl)CC1 returned RVFV N-RNA FP 92.1.
For O=S(=O)(c1ccc(F)c(Cl)c1)N1CCN(Cc2ccc3c(c2)OCO3)CC1 the results were RVFV N-RNA FP 111.3.
Screening CCCN1C(=O)c2ccc(-c3nc4cc(Cl)ccc4c(=O)o3)cc2C1=O returned RVFV N-RNA FP 94.3.
CC(O)CN1CCN(CC(=O)[O-])CCN(CC(=O)[O-])CCN(CC(=O)[O-])CC1.[Gd+3] (centres undefined) was read as RVFV N-RNA FP 93.5.
CC(C)N(CCC(=O)c1ccc2ccccc2c1)Cc1ccccc1 was read as RVFV N-RNA FP 98.9&88.3.
O=C1CC2(CCN(C(=O)Nc3ccccc3)CC2)Oc2ccccc21 was read as RVFV N-RNA FP 88.5.
`Cc1nc(C(=O)NNc2ccc(F)cc2)c(C(F)(F)F)o1` gave RVFV N-RNA FP 108.5.
`O=C(NCc1cccnc1)N(c1ccccc1)c1ccccc1` gave RVFV N-RNA FP 96.3.
Screening Nc1nc(Cl)nc2c1ncn2[C@@H]1O[C@H](COP(=O)(O)OP(=O)(O)OP(=O)(O)O)[C@H](O)C1O (some centres undefined) returned RVFV N-RNA FP 92.3.
C/C(=N\NC(=O)C1CCCCC1)c1cccs1 was read as RVFV N-RNA FP 99.9.
`CN(C)c1ccc(/C=C2/C(=O)Nc3ccccc32)cc1` gave RVFV N-RNA FP 109.6.
For C[C@@H]1C(=O)O[C@H]2C[C@@]34[C@H]5C[C@@H](C(C)(C)C)[C@]36[C@@H](OC(=O)[C@@H]6O)O[C@@]4(C(=O)O5)[C@]21O the results were RVFV N-RNA FP 93.1.
For N#Cc1cc(Oc2ccccc2Cl)c(-n2nnc3ccccc32)cc1C#N the results were RVFV N-RNA FP 97.8.
Screening COc1ccccc1OCCCn1cc(C#N)c2ccccc21 returned RVFV N-RNA FP 92.6.
Screening COC(=O)C1(C#N)C(C)(C)C1(C#N)C(=O)OC (centres undefined) returned RVFV N-RNA FP 100.4.
`CC(C)(C)C(=O)NCCc1cn2ccccc2n1` gave RVFV N-RNA FP 91.1.
For CC1=C/C(=N\S(=O)(=O)c2ccccc2)C=CC1=O the results were RVFV N-RNA FP 85.4.
Screening NC(=O)N/N=C/c1ccc(-c2cccc(C(F)(F)F)c2)o1 returned RVFV N-RNA FP 102.5.
`COc1cc2c(c(OC)c1OC)C(=O)/C(=C/N(C)C)C2` gave RVFV N-RNA FP 95.5.
CN(C)N=Nc1cccc(/C=C/C(=O)O)c1 was read as RVFV N-RNA FP 90.3.
Cn1c(N)c(C(=O)NC2CCCCC2)c2nc3ccccc3nc21 was read as RVFV N-RNA FP 93.5.
COc1ccc(C(O)P(=O)(OC2CCCCC2)c2ccc(N(C)C)cc2)cc1OC (centres undefined) was read as RVFV N-RNA FP 92.7.
`CCn1nnc2c(Nc3ccc4c(c3)OCO4)ncnc21` gave RVFV N-RNA FP 96.6.
For C=CCN(CC=C)S(=O)(=O)c1ccc(N)cc1 the results were RVFV N-RNA FP 93.4.
Screening c1ccc2c3nnc4n(c-3nc2c1)CCCS4 returned RVFV N-RNA FP 97.8.
Screening Nc1nc(Cl)nc2c1ncn2[C@@H]1O[C@H](CO)[C@H](O)C1O (some centres undefined) returned RVFV N-RNA FP 95.9.
Screening Oc1ccc(CNc2ccccc2O)cc1 returned RVFV N-RNA FP 88.0.
O=C(CC1SC(=Nc2ccccc2)N(CCCCO)C1=O)NCc1ccccc1 (centres undefined) was read as RVFV N-RNA FP 96.1.
Screening CC[C@H](NC(=O)c1c(C)c(-c2ccccc2)nc2ccccc12)c1ccccc1 returned RVFV N-RNA FP 99.6.
For CC(C)Cn1ccn(-c2cccc(Cl)c2)c(=O)c1=O the results were RVFV N-RNA FP 102.1.
Screening c1ccc2c(c1)OCC(CNc1ncnc3nc[nH]c13)O2 (centres undefined) returned RVFV N-RNA FP 92.3.
For Cc1ccc(C)c(-c2nnc(NC(=O)C3CC3)o2)c1 the results were RVFV N-RNA FP 91.5.
For Nc1nnc(SCC(=O)NCc2ccco2)n1CC(=O)NCc1ccco1 the results were RVFV N-RNA FP 95.3.
O=c1[nH]c2cc(C(F)(F)F)ccc2n1-c1cc(C(F)(F)F)ccc1O was read as RVFV N-RNA FP 91.6.
`O=C1C2C(C(=O)N1/N=C/c1ccccc1)C1C=CC2C12CC2` (centres undefined) gave RVFV N-RNA FP 94.7.
For CCOC(=O)c1ccc(N2C(=O)CS(=O)(=O)CC2=O)cc1 the results were RVFV N-RNA FP 92.4.
`COc1ccc(-c2noc(COc3cc(C)c(Cl)c(C)c3)n2)cc1OC` gave RVFV N-RNA FP 98.8.
O=S(=O)(/N=C(/Nc1cccc(O)c1)c1ccccc1)c1ccccc1 was read as RVFV N-RNA FP 97.3.
Screening CCCCCC(=O)NC1(CCC)CCCC1 returned RVFV N-RNA FP 100.5.
COc1ccc(N=Cc2c(O)[nH]c(=S)[nH]c2=O)cc1 was read as RVFV N-RNA FP 90.9.
`CC(=O)N1CCN(S(=O)(=O)c2ccc(C)cc2)C1c1ccc(N(C)C)cc1` (centres undefined) gave RVFV N-RNA FP 100.2.
Screening CCOC(=O)c1cc2c(N(C)C)nccc2nc1C(F)(F)F returned RVFV N-RNA FP 96.1.
For CCOc1ccccc1NC(=O)c1ccccc1C the results were RVFV N-RNA FP 102.5.
Screening CCCOC(=O)Nc1nnc(CCC)s1 returned RVFV N-RNA FP 102.2.
Screening CC(C)(C)c1cc(/C=C(\C#N)C(N)=S)cc(C(C)(C)C)c1O returned RVFV N-RNA FP 114.5.
`CC(C)COc1ccc(CC(C#N)C(=O)O)cc1Cl` (centres undefined) gave RVFV N-RNA FP 92.6.
Nc1c(C(=O)Nc2ccccc2C(F)(F)F)sc2[nH]c(=O)c(C(=O)O)cc12 was read as RVFV N-RNA FP 89.8.
CCN(CC)Cc1c(O)ccc2occ(C(=O)c3ccccc3)c12 was read as RVFV N-RNA FP 89.8.
Screening O=C(CCc1ccccc1)NNc1ccc(F)cc1 returned RVFV N-RNA FP 104.4.
For COc1ccc(C(=O)Nc2sc3c(c2C(=O)NCc2ccco2)CCCC3)cc1OC the results were RVFV N-RNA FP 96.7.
CCn1cc(C(=O)NC(=S)Nc2sc3c(c2C(=O)OC)CCCCCC3)cn1 was read as RVFV N-RNA FP 94.2.
O=C(CCC1COc2ccccc2O1)NC1CCCCC1 (centres undefined) was read as RVFV N-RNA FP 111.9.
Screening COc1cc2ncnc(Nc3ccc(OCc4ccccc4)cc3)c2cc1OC returned RVFV N-RNA FP 106.8.
For COC(=O)c1ccc(OC(=O)c2ccc(Br)o2)cc1 the results were RVFV N-RNA FP 99.4.
For CC(=O)N/N=C(/c1ccccc1)C(O)c1ccccc1 (centres undefined) the results were RVFV N-RNA FP 88.2.
For c1ccc(CN2CCCN(Cc3ccccc3)C2c2cccs2)cc1 the results were RVFV N-RNA FP 111.9.
N#CCCO/N=C/c1ccco1 was read as RVFV N-RNA FP 99.7.
Screening Cc1ccc(C2N(Cc3ccccc3)CCCN2Cc2ccccc2)o1 returned RVFV N-RNA FP 92.5.
Screening CCCC1Cc2[nH]c(=O)c(C(=O)O)cc2CO1 (centres undefined) returned RVFV N-RNA FP 85.7.
Screening COC(=O)c1cc(OC)c(OC)cc1NC(=O)CSc1nnnn1-c1ccccc1OC returned RVFV N-RNA FP 102.3.
COc1ccccc1OC(=O)C1CCCCC1 was read as RVFV N-RNA FP 97.9.

Arranged by molecular weight (lowest first): part of the list above
Screening O=C(CCc1ccccc1)NNc1ccc(F)cc1 returned RVFV N-RNA FP 104.4.
For COC(=O)c1ccc(OC(=O)c2ccc(Br)o2)cc1 the results were RVFV N-RNA FP 99.4.
CCn1cc(C(=O)NC(=S)Nc2sc3c(c2C(=O)OC)CCCCCC3)cn1 was read as RVFV N-RNA FP 94.2.
Screening COC(=O)c1cc(OC)c(OC)cc1NC(=O)CSc1nnnn1-c1ccccc1OC returned RVFV N-RNA FP 102.3.

(next part)
CCN(CC)C(=O)c1ccccc1OC was read as RVFV N-RNA FP 110.6.
`COc1ccc(OCc2nnco2)cc1` gave RVFV N-RNA FP 93.4.
CC1=C(C)C(=O)C(C)=C(C)C1=O was read as RVFV N-RNA FP 95.6.
Screening O=c1nc(Nc2ccccc2)cn[nH]1 returned RVFV N-RNA FP 89.0.
`CN1CCN(C(=O)O[C@H]2c3nccnc3C(=O)N2c2ccc(Cl)cn2)CC1` gave RVFV N-RNA FP 97.9&97.0.
`Cc1ccc(C(=O)NCCc2cn3ccccc3n2)cc1` gave RVFV N-RNA FP 111.6.
`O=P(OCC1CC1)(c1ccccc1)c1ccccc1` gave RVFV N-RNA FP 95.2.
Screening C/C(=N\N1C(=O)c2ccccc2C1=O)C1C(=O)c2ccccc2C1=O returned RVFV N-RNA FP 93.7.
Screening C=CCn1c2c(c(=O)[nH]c1=O)C(c1ccccc1)C1=C(COC1=O)N2 (centres undefined) returned RVFV N-RNA FP 98.4.

Screening data: PubChem, ICCB-Longwood Screening Facility, Harvard Medical School
